TRPML1 blocker: blocks the human TRPML1 channel; Q9GZU1; TRPML1-inducible cells, Ca2+ dye fluorescence, FDSS; stronger effect = lower value; inhibition of EC80 agonist-evoked calcium signal; activity change, negative = inhibition, % (no concentration beside the values); 390,000 compounds, 0.02% hits; in the data active means activity change below about -50%; inconclusive means about -30% to -50%; inactive means above about -30%;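 further: stimulus is agonist 54-4 at its EC80 concentration; on the % scale 0 is the no-effect control and ±100 the full control effect; compound concentration not given in the record; the text of the record puts the active cut at -80%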
Target sequence (Q9GZU1 whole entry, looked up): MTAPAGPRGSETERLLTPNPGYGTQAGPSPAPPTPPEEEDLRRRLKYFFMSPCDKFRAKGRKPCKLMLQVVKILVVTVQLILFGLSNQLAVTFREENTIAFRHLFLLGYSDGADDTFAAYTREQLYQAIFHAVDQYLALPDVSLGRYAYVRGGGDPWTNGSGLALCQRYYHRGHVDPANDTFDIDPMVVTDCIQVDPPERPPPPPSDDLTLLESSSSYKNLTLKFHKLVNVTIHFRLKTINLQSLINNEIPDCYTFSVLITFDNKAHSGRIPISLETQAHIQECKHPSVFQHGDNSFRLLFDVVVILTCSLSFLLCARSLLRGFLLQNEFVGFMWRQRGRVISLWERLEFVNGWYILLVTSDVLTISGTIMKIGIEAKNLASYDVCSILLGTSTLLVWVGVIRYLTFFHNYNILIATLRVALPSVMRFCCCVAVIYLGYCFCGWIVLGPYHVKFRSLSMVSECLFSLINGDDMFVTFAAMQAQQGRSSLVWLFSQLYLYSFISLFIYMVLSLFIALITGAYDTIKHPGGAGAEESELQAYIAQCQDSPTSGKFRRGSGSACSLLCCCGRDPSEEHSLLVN
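Tet-induced TRPML1-DL cells loaded with Ca8 no-wash calcium dye were read kinetically on FDSS. Compound addition was followed by EC80 agonist 54-4 (4 uM final); inhibition was read over 110 s.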
TRPML1 ag: activates the human TRPML1 channel. Q9GZU1. TRPML1-expressing cells, Ca2+ dye fluorescence, FDSS; host cell line not named in the record; reference of the full effect not given here. activation, % (no concentration beside the values). 410,000 compounds, 0.12% hits. AID 624414; in the data active = activation above about 50%; inconclusive = about 30% to 50%; inactive = below about 30%; further: 0% is about no effect; the text of the record puts the active cut at 80%
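Agonist activity was taken from a 110 s kinetic Ca2+ dye read on the FDSS after pinning compounds onto TRPML1-DL cells. The cells were seeded at 1,500/well with Tet inducer, incubated about 16 h, then dye-loaded at room temperature.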
Active calls of the source: *; ? = inconclusive. Only part of the results is shown. The share of hits here may be higher or lower than overall.

Order of results: TRPML1 blocker, TRPML1 ag
1. Cc1ccccc1NC(=O)c1sc2nc3c(cc2c1N)CN(Cc1ccccc1)CC3
  -16, 2.0
2. Cc1cc(C)cc(NC(=O)CN2C(=O)COc3ccc(S(=O)(=O)Nc4ccccc4)cc32)c1
  -1, 1.2
3. CC1CCc2c(sc(NC(=O)c3cc(-c4ccc(F)cc4)on3)c2C(N)=O)C1 (stereo not given)
  2, -0.5
4. Cc1ccc(C)c(NC(=O)Cn2c(=O)n(CCC(=O)NCc3ccc4c(c3)OCO4)c(=O)c3ccccc32)c1
  10, -0.1
5. Cc1cccc(NS(=O)(=O)c2ccc3c(c2)OCC(C(=O)N2CCCC2)O3)c1C (stereo not given)
  -15, 0.4
6. O=C(CS(=O)(=O)c1cccc2nsnc12)Nc1ccccc1Cl
  0, 2.1
7. Cn1c(=O)c(=O)n(C)c2cc(NS(=O)(=O)c3ccc(Br)cc3)c(Cl)cc21
  1, 0.0
8. Cc1cc(C)cc(-n2ccnc(NCc3ccc(F)cc3)c2=O)c1
  16, 2.0
9. CCOCCCNC(=O)Cn1nc(CC)n2c(cc3c(OC)cccc32)c1=O
  4, -0.5
10. CCOC(=O)C1CCN(c2csc3ccc(C)cc3c2=O)CC1
  -7, -0.2
11. CCN(Cc1ccccc1)S(=O)(=O)c1cc(Br)cc2c1N(C(=O)C1CC1)CC2
  43, -0.5
12. COc1ccc(CNC(=O)CCCn2c(=O)c3cccn3c3ccc(F)cc32)cc1OC
  4, 5.3
13. CC(C)CCNC(=O)c1ccc(Cn2c(SCC(N)=O)nc3ccccc3c2=O)cc1
  18, 0.9
14. COc1cc2c(=O)c(S(=O)(=O)c3ccc(C)cc3)cn(Cc3cccc(C)c3)c2cc1OC
  3, 1.5
15. COc1cc(NC(=O)Cn2ccc3ccccc3c2=O)cc(OC)c1OC
  35, 0.4
16. Cc1cccc(OCC(=O)Nc2ccccc2OCc2cc(=O)n3ccccc3n2)c1
  -4, 0.4
17. CCOc1ccc(CCNC(=O)c2ccc3c(c2)N(Cc2ccccc2F)C(=O)c2ccccc2S3=O)cc1OCC (stereo not given)
  -8, -0.5
18. CCOc1ccc(NC(=O)c2sc3nc(-c4ccc(OC)cc4)cn3c2C)cc1
  1, 2.6
19. Cc1cc(C)n2nc(SCC(=O)Nc3cc(Cl)ccc3C)nc2n1
  -14, 2.2
20. CCCCCNc1nc2c(-c3ccccc3)nnn2c2ccccc12
  11, -0.2
21. Cn1c(SCc2ccccc2F)nc2c([nH]c3ccccc32)c1=O
  59, -0.1
22. CCS(=O)(=O)c1ccccc1C(=O)Nc1ccc(-c2nc3ccccc3s2)cc1
  -5, -0.2
23. Cc1ccc(-n2c(COCC(=O)O)nc3cccnc32)cc1
  18, -0.2
24. CCOc1ccc(NC(=O)Cn2cc(C(=O)c3ccc(OCC)cc3)c(=O)c3cc4c(cc32)OCCO4)cc1
  -12, -0.6
25. CC(C)COc1ccc(C(=O)N2CCCCC2CCN2CCOCC2)cc1 (stereo not given)
  -12, -0.3
26. C=Cc1ccc(Cn2c(C(=O)O)c(CNCc3ccccc3)c3ccc(OC)cc32)cc1
  -1, 0.4
27. CCc1ccc(S(=O)(=O)Nc2ccc3c(c2)sc(=O)n3C)cc1
  -14, 0.4
28. Cc1ccc(-n2nc(CO)c(C(=O)NCc3cccnc3)n2)cc1C
  -8, 1.2
29. CCc1ccccc1N1CC(c2nc3ccccc3n2CCCCOc2ccccc2)CC1=O (stereo not given)
  38, -0.3
30. Cc1ccc(NC(=O)CCS(=O)(=O)c2ccc3nc(C)sc3c2)c(C)c1
  -2, -0.4
31. COc1ccc(OC)c(CNC(=O)c2ccc3nc(C(C)C)oc3c2)c1
  -13, 1.4
32. O=C(NCc1ccccc1Cl)c1ccc(Cn2c(SCc3ccccc3)nc3cccnc32)cc1
  44, 0.5
33. Cc1ccc(NC(=O)Cn2cc(C(=O)C3CC3)c3ccccc32)cc1C
  9, 0.7
34. COc1ccc(Nc2oc(-c3ccc(COc4ccc(OC)cc4)o3)nc2C#N)cc1
  6, 0.5
35. CCCCOc1ccc(C2=NC(c3ccncc3)=Nc3ccc(OCC)cc3N2)cc1
  72, 1.7
36. Cc1ccc(SCC(c2ccccc2)N2CCN(CC(C)C)CCC2=O)cc1 (stereo not given)
  4, 1.8
37. CC(Sc1nnc2ccc3ccccc3n12)C(=O)Nc1ccc(Cl)cc1 (stereo not given)
  -6, -0.3
38. CCOC(=O)N1CCN(Cc2nc3cc(NC(=O)c4cccc(C)c4)ccc3n2C(C)C)CC1
  -15, 2.2
39. Cn1c(=O)c2c(nc(CN3CCN(c4ccccc4F)CC3)n2Cc2ccccc2F)n(C)c1=O
  20, 1.0
40. COc1ccc(CNC(=O)Cn2ncc3c4ccccc4n(Cc4cccc(Cl)c4)c3c2=O)cc1
  -7, 0.1
41. COc1ccc(N2CCN(Cc3cccn3-c3nnc(N4CCN(C5CCCCC5)CC4)s3)CC2)cc1
  74, 2.2
42. Cc1cccc(CCNC(=O)C2CCC(CNS(=O)(=O)c3c(C)cc(C)cc3C)CC2)c1 (stereo not given)
  5, 2.1
43. Cc1ccc(NC(=O)C2CCCN2S(=O)(=O)c2ccc3nc(-c4ccccc4)[nH]c3c2)cc1F (stereo not given)
  -15, 4.1
44. COc1ccc(C(=O)NNc2ncnc3c2cnn3-c2ccccc2)cc1
  -20, -0.1
45. CC(C)(Oc1ccc(Cl)cc1)C(=O)Nc1ccc(-c2nc3ncccc3o2)cc1
  -7, 1.1
46. CCOC(=O)c1cnc2c(C)cc(Cl)cc2c1NCCc1ccc(OC)c(OC)c1
  17, -0.6
47. Cc1oc2ncn(CC(C)C)c(=O)c2c1C(=O)NC(C)c1ccccc1 (stereo not given)
  9, 0.2
48. CC(C)(C)c1ccc(C(=O)Nc2ccc(NC(=O)c3ccc(Cl)c(Cl)c3)cc2)cc1
  1, -0.6
49. Cc1cccc(CNC(=O)c2cnc3c(-c4cccc(C)c4)c(C)nn3c2C)c1
  0, 3.9
50. Cc1ccc(C)c(N2CCN(C(=O)Cn3nc(C)c4sc5ccccc5c4c3=O)CC2)c1
  0, -0.3
51. CC(=O)Nc1ccc(NC(=O)C2CCCN2S(=O)(=O)c2ccc3c(c2)CCCC(=O)N3)cc1 (stereo not given)
  7, -0.4
52. COc1ccc(F)cc1S(=O)(=O)NCCc1csc2nc(-c3cccc(C)c3)nn12
  10, 0.7
53. CCOC(=O)c1c(C)c(-c2ccccc2)n(CC(=O)Nc2cccc(C)c2C)c1C
  49, 0.1
54. O=C(c1cccs1)c1cn(CCOc2ccc(Cl)cc2)c2ccccc12
  17, 1.2
55. COc1ccc(N2CCN(CCCNC(=O)c3cnn(-c4ccc(F)cc4)c3-n3cccc3)CC2)cc1
  2, 2.4
56. COc1ccc(CCC(=O)NCCc2csc(-c3cccc(F)c3)n2)cc1
  -6, 1.4
57. Cc1cc(C)cc(NC(=O)CSc2oc(-c3ccccc3)nc2S(=O)(=O)c2ccccc2)c1
  2, -0.3
58. COC(=O)CSc1nnc(-c2cccc(O)c2)o1
  ?, 0.5
59. COc1cc(NC(=O)CN2CCN(S(=O)(=O)c3ccc(Br)cc3)CC2)cc(OC)c1
  -5, -0.9
60. Cc1ccc(NC(=O)C(Cc2ccccc2)n2cccc2)c(C)c1 (stereo not given)
  1, 6.1

Whole records as entered above.
Cc1ccc(NC(=O)C(Cc2ccccc2)n2cccc2)c(C)c1 (stereo not given) is listed with TRPML1 blocker = 1; TRPML1 ag = 6.1
Cc1oc2ncn(CC(C)C)c(=O)c2c1C(=O)NC(C)c1ccccc1 (stereo not given) is listed with TRPML1 blocker = 9; TRPML1 ag = 0.2

(listing goes on)
Order of results: TRPML1 blocker, TRPML1 ag
61. CC1=C(C(=O)OCc2ccc(C)cc2)C(c2cccc(F)c2F)CC(=O)N1 (stereo not given)
  -7, -1.2
62. CCCCn1c(SCc2ccccc2C#N)nc2c(sc3ccccc32)c1=O
  -6, 0.0
63. COc1ccccc1Nc1nn2c(=O)c3ccc(C(=O)NCc4ccc(F)cc4)cc3nc2s1
  -5, 0.8
64. Cc1ccccc1NC(=O)Cn1cc(C(=O)c2cccs2)c2ccccc21
  ?, 4.2
65. Oc1cccc(Nc2cc(-c3ccccc3)ncn2)c1
  -3, -0.6
66. CCCN(Cc1cccs1)C(=O)Nc1cc(Cl)c(OC)cc1OC
  10, 1.5
67. COc1ccccc1/C=C(\C#N)C(=O)NCC1CCCO1 (stereo not given)
  -13, 0.3
68. CCC(=O)C1=C(c2ccc(F)cc2)N(C(=O)CC)n2c(nnc2C2CCCCC2)S1
  -14, 3.1
69. CN1C(=O)C(C)(C)c2cc(S(=O)(=O)NCc3ccc(C(=O)Nc4ccc(Cl)cc4)cc3)ccc21
  -9, 2.8
70. CCc1ccc(-n2c(N3CCN(c4cccc(C)c4C)CC3)nc3ccccc3c2=O)cc1
  25, -0.1
71. COc1cccc(CNC(=O)Cc2ccc(NC(=O)N3CCSc4ncccc43)cc2)c1OC
  -15, 0.9
72. Cc1ccc(-c2cc(C(F)(F)F)c(C#N)c(SCC(=O)Nc3ccccc3F)n2)cc1
  ?, 6.2
73. COc1cccc(CCNC(=O)c2c(O)nc3cc(C)ccn3c2=O)c1
  3, -0.5
74. CC(C)(C)n1ncc2c(=O)n(Cc3ccc(-c4ccccc4C#N)cc3)cnc21
  -7, 2.0
75. Cc1cc(C)cc(Oc2nc3c(C)cccn3c(=O)c2/C=C(\C#N)c2nc3ccccc3s2)c1
  0, 0.1
76. CCOC(=O)N1CCc2c(sc(NCc3cccs3)c2C(=O)Nc2cc(OC)ccc2OC)C1
  -15, -0.1
77. O=C(NCC(c1ccco1)S(=O)(=O)c1cccs1)c1ccccc1F (stereo not given)
  -3, -0.1
78. COc1ccc(Cl)cc1C(=O)NCc1nnnn1-c1ccccc1
  -5, -0.1
79. COc1ccc(C)cc1NC(=O)CN(C)S(=O)(=O)c1ccc2[nH]c(=O)oc2c1
  4, 1.2
80. Cc1ccc2oc(-c3cc(NC(=O)Cc4ccccc4)ccc3Cl)nc2c1
  17, 2.2
81. COc1ccc(CNC(=O)c2c(O)nc3cc(C)ccn3c2=O)cc1
  54, -0.4
82. Cc1nc(-c2ccccc2)sc1-c1ccc(SCC(=O)Nc2ccc(F)cc2F)nn1
  -5, 0.7
83. CCCCNC(=O)c1nn(-c2ccc(CC)cc2)nc1CO
  -3, 2.1
84. Cc1cc(O)c(C(c2ccccc2Cl)N2CCN(c3ccccc3)CC2)c(=O)n1Cc1ccco1 (stereo not given)
  -7, 0.5
85. Cc1ccc2c(c1)-c1onc(C(=O)N(C)c3cccc(C(F)(F)F)c3)c1CO2
  -10, 0.9
86. CC(C)Cn1c(-c2ccccc2Cl)nc2ccccc21
  -4, 5.7
87. CCCOc1cccc(C(=O)N(Cc2sccc2C)C2CCS(=O)(=O)C2)c1 (stereo not given)
  48, 1.8
88. Cc1cccc(C(=O)Nc2c(-c3ccc(F)cc3)nc3ccccn23)c1
  -6, 0.2
89. O=c1nc2n(-c3ccccc3F)c3ccccc3cc-2c(=O)[nH]1
  -1, 0.2
90. Cc1ccc(CC(=O)NCc2nc(-c3ccccc3)no2)cc1
  3, 0.0
91. CS(=O)(=O)N1CCC(N2CCN(Cc3ccc(F)cc3)C(=O)C2=O)CC1
  -6, -0.1
92. Cc1ccc(C)c(NC(=O)c2nnn(CC(=O)Nc3cccc(C)c3C)c2N)c1
  25, -0.3
93. O=C(CSc1nc2c([nH]c3ccccc32)c(=O)n1-c1cccc(Cl)c1)c1ccccc1
  1, 0.3
94. Cc1csc2nc(CCNS(=O)(=O)c3ccccc3)cn12
  20, 0.2
95. CCCn1c(=O)c2sccc2n2c(CCCC(=O)N3CCN(c4ccccc4OC)CC3)nnc12
  -7, 0.8
96. CCCCOC(=O)c1ccc(NC(=O)c2cnc3ccc(C)cn3c2=O)cc1
  8, 0.1
97. COc1ccc2cc(-c3nc4ccc(C(=O)O)cc4[nH]3)c(=O)oc2c1
  -8, 0.1
98. COc1cc(Nc2ncc3c(n2)CCN(Cc2cc(F)cc(F)c2)C3)cc(OC)c1
  -14, 2.0
99. COc1ccc(-c2nnc(SCC(=O)N3CCC(C)CC3)o2)cc1
  -15, -0.6
100. Cc1c(C(=O)NCc2cccc(F)c2)oc2c1-c1[nH]ncc1CC2
  -1, 0.1
101. COc1cc(OC)cc(C(=O)Nc2cc3c(cc2N2CCCCC2)n(C)c(=O)n3C)c1
  -3, -1.3
102. O=C(Nc1ccc(F)cc1)c1cccc(N2CCCS2(=O)=O)c1
  36, -0.5
103. CCOC(=O)c1ccc(NC(=O)c2cc3c(n(-c4ccc(C)cc4)c2=O)CC(C)(C)CC3=O)cc1
  14, 0.0
104. Cc1cn2c(=O)c(S(=O)(=O)NCc3ccccc3Cl)c(C)nc2s1
  8, -0.1
105. CCOc1ccccc1CN(CCc1ccc2c(c1)OCO2)Cc1cccc(OC)c1OC
  17, 3.8
106. COc1ccc(CC(=O)NC2CC(=O)N(c3cccc(F)c3)C2)cc1 (stereo not given)
  -14, 1.4

Screening data (PubChem)
